# KCNQ2 block – KCNQ2 channel blockers in CHO-K1 cells – cell-based, FluxOR thallium flux, B-score, primary screen (AID 2156). B-score at 10 µM. 20 min; active compounds read low; only compounds with negative scores are shown here; some inactives read as strong as hits. 310,000 tested, 1.1% active;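 active = fluorescence ratio B-score at most minus 3 library SDs, with starting brightness B-score within 2 library SDs, cut at about -5.5 in these data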
# Target sequence (O88943 whole entry, looked up): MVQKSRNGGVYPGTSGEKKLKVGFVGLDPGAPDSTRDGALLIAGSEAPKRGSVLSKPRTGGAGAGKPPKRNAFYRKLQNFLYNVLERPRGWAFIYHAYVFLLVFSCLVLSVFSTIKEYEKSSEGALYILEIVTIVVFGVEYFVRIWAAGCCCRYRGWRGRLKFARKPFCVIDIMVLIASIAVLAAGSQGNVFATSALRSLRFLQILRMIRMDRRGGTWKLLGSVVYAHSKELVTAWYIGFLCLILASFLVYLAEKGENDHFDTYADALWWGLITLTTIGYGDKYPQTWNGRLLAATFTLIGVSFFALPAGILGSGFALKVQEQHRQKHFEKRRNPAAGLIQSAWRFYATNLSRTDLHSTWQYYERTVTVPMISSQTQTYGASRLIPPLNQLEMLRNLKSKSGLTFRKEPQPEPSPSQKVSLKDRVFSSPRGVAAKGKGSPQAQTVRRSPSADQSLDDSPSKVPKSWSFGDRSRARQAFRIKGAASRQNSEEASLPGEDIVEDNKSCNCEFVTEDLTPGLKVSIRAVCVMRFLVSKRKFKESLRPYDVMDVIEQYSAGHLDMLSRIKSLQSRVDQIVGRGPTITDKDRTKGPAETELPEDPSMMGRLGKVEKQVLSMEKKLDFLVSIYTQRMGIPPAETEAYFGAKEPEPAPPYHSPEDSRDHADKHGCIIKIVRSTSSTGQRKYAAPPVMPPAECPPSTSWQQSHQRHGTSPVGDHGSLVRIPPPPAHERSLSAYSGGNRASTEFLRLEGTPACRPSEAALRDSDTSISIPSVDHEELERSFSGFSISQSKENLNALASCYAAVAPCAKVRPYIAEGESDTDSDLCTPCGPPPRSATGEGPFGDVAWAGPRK
# KCNQ2 block baseline – also measured in KCNQ2 block; calls as there; B-score; measured here: initial fluorescence intensity artifact check;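 brightness before thallium and not channel activity; 0 = typical well and far values either way flag optical interference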
# The depositor's hits bear a star; i = inactive. A portion of the library (hit frequency here may not be typical).
# Preview, two compounds:
SMILES,KCNQ2 block,KCNQ2 block baseline
O=S(=O)(c1ccc(Cl)cc1)N1CCC(O)(c2cccnc2)CC1,i,1.4
O=[N+]([O-])c1ccccc1C1Nc2cccc3cccc(c23)N1,i,-1.2

# All compounds of this part (from the top)
SMILES,KCNQ2 block,KCNQ2 block baseline
O=S(=O)(c1ccc(Cl)cc1)N1CCC(O)(c2cccnc2)CC1,i,1.4
O=[N+]([O-])c1ccccc1C1Nc2cccc3cccc(c23)N1,i,-1.2
COCC1CCN(C(=O)CCc2nnc(C3(c4ccc(Cl)cc4)CCC3)o2)CC1,i,0.46
CCc1ccc2[nH]c(=O)c(CN(CCN(C)C)C(=S)NCc3ccco3)cc2c1,i,0.16
O=C(NCc1ccco1)C1Cc2ccccc2CN1C(=O)c1ccco1 (stereo unspecified),i,-0.98
COC(=O)c1c(NC(=O)COC(=O)CCNS(=O)(=O)c2ccc(NC(C)=O)cc2)sc(C)c1C,i,-0.92
CC(C)(C)Cc1nnc(NC(=O)c2ccco2)s1,i,1.6
CCOC(=O)c1cn(CC2CC2)c2cc(F)c(F)cc2c1=O,i,0.2
COC(=O)CC1(C(=O)OC)Oc2ccc(Br)cc2C(=O)N1c1cccc(Cl)c1Cl (stereo unspecified),i,-0.02
C#CCSc1nc(N)c2c(n1)OC(N)=C(C#N)C2c1cccnc1 (stereo unspecified),i,-0.92
CN=C1SC(CC(=O)Nc2ccccc2F)C(=O)N1/N=C/c1ccc(O)c(OC)c1 (stereo unspecified),i,-1.3
FC(F)(F)c1ccccc1CN1CCC(Cc2ccccc2)CC1,i,-2.1
CCOc1ccc(Cl)cc1S(=O)(=O)N1CCN(c2ccc(C)c(C)c2)CC1,i,-1.6
C=Cn1c(N2CCOCC2)nc2c1c(=O)[nH]c(=O)n2C,i,-1.5
Cc1nn(-c2ccccc2)c(N)c1N=Nc1ccc(Cl)cc1,i,-0.37
N/C(=N\OC(=O)/C=C/c1ccccc1Cl)c1cccnc1,i,0.4
O=C(O)C1NCCc2ccccc21 (stereo unspecified),i,-0.5
O=C(Oc1ccc2ccc(=O)oc2c1)c1ccco1,i,-0.58
Cc1cc(C)cc(C(=O)OCC(=O)NCc2cccs2)c1,i,-0.54
O=C(NCc1cccs1)C1CCCN1S(=O)(=O)c1ccccc1F (stereo unspecified),i,-0.02
CCOc1ccc(S(=O)(=O)N(CC(=O)NC2CCCCC2C)Cc2ccco2)cc1 (stereo unspecified),i,-0.23
C/C=C/c1ccc(OCC(=O)N(C)CC(=O)Nc2ccc(F)cc2)c(OC)c1,i,-0.93
CCCCC[C@H]1CN(CCCC)C(=O)[C@@H]1CC(=O)NCc1ccc(OC)cc1,i,-1.6
CC1=C(C(=O)Nc2nc3ccccc3s2)C(c2ccco2)C(C#N)=C(SCC(=O)NC2CCCCC2)N1 (stereo unspecified),i,0.94
Cc1ccc(CN2CCSc3ccc(C(=O)NCCCN4CCN(C)CC4)cc32)cc1,i,0.38
CCOC(=O)CSc1nc2c(sc(=S)n2-c2ccccc2OC)c(=O)n1Cc1ccco1,i,-1.4
CCOc1nc(CC(C)C)c2c(c1C#N)CC(C)(C)OC2,i,-1.3
O=C(COc1ccc2c3c(c(=O)oc2c1)CCC3)NC1CCN(Cc2ccccc2)CC1,i,-1.3
Cc1oc(-c2cccc(Cl)c2)nc1CS(=O)(=O)CC(=O)NC1CCCC1,i,0.08
CCOc1ccccc1N(C(=O)c1ccccc1Cl)C1=NC(C)(C)CS1,i,-0.04
CC(=O)c1ccc(OC(=O)CN2C(=O)c3ccccc3C2=O)cc1,i,-0.94
COc1ccc(CNC(=O)C2(CC3CC(c4ccccc4)=NO3)CCN(C(=O)C3CCCC3)CC2)cc1 (stereo unspecified),i,-0.25
CCOC(=O)C1=C(CC)NC2=C(C(=O)CCC2)C1c1ccc(OC)c(OC)c1 (stereo unspecified),i,0.4
Cc1ccc(S(=O)(=O)N(C)C)cc1NC(=O)C(C)Sc1ccccc1 (stereo unspecified),i,-1.1
Cc1ccc(/C=N/Nc2nc(N3CCCCC3)nc(N3CCCCC3)n2)o1,i,-1.6
CC(=O)Nc1ccccc1NC(=O)C/C(C)=N/NC(=O)c1cccnc1,i,-0.29
O=C(O)[C@H](Cc1ccccc1)Nc1ccc([N+](=O)[O-])cn1,i,0.11
CC(C)CNC(=O)C(=O)NCC1OCCN1S(=O)(=O)c1cccs1 (stereo unspecified),i,1.8
CCc1ccc(S(=O)(=O)NCCc2csc(-c3ccccc3)n2)s1,i,0.19
CCOC(=O)c1cc2c(c(CSc3nc4ccccc4c(=O)n3Cc3ccco3)c1)OCOC2,-5.6*,0.8*
N#CC1C=Cc2ccccc2N1C(=O)c1ccccc1 (stereo unspecified),i,0.53
O=C(Nn1c(-c2ccccc2)nc2ccccc2c1=O)c1cccs1,i,0.71
O=C(N/C=C/n1cnc2cc(C(F)(F)F)ccc21)c1ccccc1F,i,0.1
CCOc1ccc(S(=O)(=O)N2CCN=C2c2ccccc2)cc1,i,0.27
Cc1ccc(/C=N/NC(=O)c2ccc(Br)o2)s1,i,0.74
CN(C)CCCN1C(=O)c2oc3ccc(Cl)cc3c(=O)c2C1c1cccnc1 (stereo unspecified),i,1.6
Cc1onc(-c2c(Cl)cccc2Cl)c1NC(=O)NNc1c(Cl)cncc1Cl,i,-1.1
COc1cc(C(C#N)N2N=C(c3ccccc3)CC2c2ccccc2)ccc1O (stereo unspecified),i,0.99
CN(C)CCNC(=S)Nc1ccc(F)c(F)c1F,i,2.9
CC(=O)c1ccc(NC(=O)Nc2cccc(Cl)c2)cc1,i,2.6
Cc1ccc(S(=O)(=O)N2CCN(C3CCC(c4ccccc4)CC3)CC2)cc1 (stereo unspecified),i,0.04
CN(CC(=O)Nc1ccc(OC(F)(F)F)cc1)C1CCCCC1,i,1.3
Cc1c(CCOC(=O)C23CC4CC(CC(C4)C2)C3)sc[n+]1CC#N,i,-0.46
Cc1ccc(NC(=O)NNc2cccc(Cl)n2)cc1,i,-0.02
Cc1onc(-c2ccccc2)c1-c1ccnn1S(=O)(=O)c1ccc(Cl)cc1,i,1.1
Cc1nnc(SCC(=O)N2c3ccccc3CC2C)s1 (stereo unspecified),i,-1.4
Cc1cc(-c2nnnn2-c2cc(Cl)cc(Cl)c2)no1,i,-0.08
CNC(=S)N1CCC(NC(=O)C23CC4CC(CC(C4)C2)C3)CC1,i,1.1
COCCn1c(SCC(=O)Nc2cc(C(C)(C)C)nn2-c2ccccc2)nc2ccccc2c1=O,i,-2.8
Cc1onc(-c2ccccc2)c1C(=O)NC(=S)NNC(=O)c1cc(-c2ccc(F)cc2)n[nH]1,i,0.76

# Compound profiles (already shown). Order of values: KCNQ2 block	KCNQ2 block baseline
# Cc1onc(-c2ccccc2)c1C(=O)NC(=S)NNC(=O)c1cc(-c2ccc(F)cc2)n[nH]1 is listed with i	0.76
# Cc1ccc(S(=O)(=O)N2CCN(C3CCC(c4ccccc4)CC3)CC2)cc1 (stereo unspecified) is listed with i	0.04
# CN(CC(=O)Nc1ccc(OC(F)(F)F)cc1)C1CCCCC1 is listed with i	1.3
# Cc1cc(-c2nnnn2-c2cc(Cl)cc(Cl)c2)no1 is listed with i	-0.08
# CN(C)CCNC(=S)Nc1ccc(F)c(F)c1F is listed with i	2.9

# (more compounds)
SMILES,KCNQ2 block,KCNQ2 block baseline
Cc1ccc2cc(CCNC(=O)c3ccco3)c(=O)[nH]c2c1,i,-2
CCCc1ccc2oc(C(=O)N3CCC(COC)C3)c(C)c2c1 (stereo unspecified),i,-0.3
COc1cccc(CN2CC(C(=O)N3CCN(C(C)C)CC3)CCC2=O)c1 (stereo unspecified),i,1.8
CC/C(=C\c1oc2cc3ccccc3cc2[n+]1CC)Nc1ccccc1,i,1.2
Cc1ccc(NC(=O)Nc2cccnc2)cc1NC(=O)Nc1cccnc1,i,-2.2
COCCNC(=O)Cn1c(=O)n(CCCCCC(=O)Nc2ccccc2)c(=O)c2sccc21,i,-3
COc1ccc(N=Cc2c(O)n(-c3cccc(C)n3)c(=O)c3ccccc23)cc1,i,-0.08
CCc1c(C)sc(NC(=S)NC(C)C2CCCO2)c1C(=O)OC (stereo unspecified),i,-0.02
Cc1c(C(=O)Nc2ccccn2)oc2ccc(Br)cc12,i,-0.63
CCCCCNCc1cccn1C,i,-0.17
CCc1ccc(C2CC(=O)Nc3c2c(=O)nc2c(C)cccn32)cc1 (stereo unspecified),i,-0.21
COc1ccccc1N1CCN(CC(O)COCCOc2ccc(Br)cc2)CC1 (stereo unspecified),i,0.48
COc1ccccc1C/C(N)=N/OC(=O)c1ccc2c(c1)OCO2,i,0.45
COCCn1nnnc1C(c1cccs1)N1CCN(c2cc(C)ccc2C)CC1 (stereo unspecified),i,-1.1
Cc1ccc(C)c(OCCCC(=O)Nc2nccs2)c1,i,-0.31
O=C(NCc1ccccc1)C1CCCN(S(=O)(=O)c2cccs2)C1 (stereo unspecified),i,0.76
COc1ccc(N(CC(=O)N/N=C(\C)c2ccc(OC)c(OC)c2)S(=O)(=O)c2ccccc2)cc1,i,-1.3
COc1ccccc1C(=O)Nc1ccc2oc(-c3ccc(F)cc3)nc2c1,i,-0.17
O=C(/C=C/c1ccccc1)Nc1nnc(-c2ccco2)o1,i,0.64
Cc1cccc2sc(NNC(=O)C3=COCCO3)nc12,i,-0.41
O=C(CSc1ccc(-c2ccccn2)nn1)N1CCc2ccccc21,i,-0.27
CC(=O)N1c2ccc(S(=O)(=O)N3CCC(C(=O)NC4CCCCC4C)CC3)cc2CC1C (stereo unspecified),i,-0.69
CN(Cc1ccccc1)C(=O)CSc1nnc(-c2ccco2)n1-c1ccccc1,i,-1.8
Cc1c(NC(=S)NC(=O)c2cccc(Br)c2)c(=O)n(-c2ccccc2)n1C,i,-0.43

# 4 entries from above in a different format:
structure	KCNQ2 block	KCNQ2 block baseline
COc1ccccc1C/C(N)=N/OC(=O)c1ccc2c(c1)OCO2	i	0.45
O=C(CSc1ccc(-c2ccccn2)nn1)N1CCc2ccccc21	i	-0.27
COc1ccccc1C(=O)Nc1ccc2oc(-c3ccc(F)cc3)nc2c1	i	-0.17
O=C(NCc1ccccc1)C1CCCN(S(=O)(=O)c2cccs2)C1 (stereo unspecified)	i	0.76

# The listing continues:
SMILES,KCNQ2 block,KCNQ2 block baseline
COc1ccc(N2CCN(C(=S)Nc3ccc(C)cc3)CC2)cc1,i,0.01
N/C(=N\OC(=O)/C=C/c1ccccc1)c1ccc(Cl)cc1,i,-0.02
CC(C)[N+](C)(C)CC(O)CN(c1ccccc1)c1ccccc1 (stereo unspecified),i,0.73
COc1ccc(C(=O)NNC(=O)COc2ccc(Cl)cc2C)cc1S(=O)(=O)N1CCOCC1,-5.6*,0.46*
CCCNC(=O)COC(=O)c1ccccc1OCc1ccc(Cl)cc1,i,1.6
Cc1ccc(C(=O)NNC(=O)C2CCN(C(=O)OC(C)(C)C)CC2)cc1,i,1.7
CN1C(=S)N(c2ccccc2)C(=O)/C1=C/c1ccco1,i,1.4
Cc1cc(C)c2c(C)c(C(=O)NCc3ccc(S(N)(=O)=O)cc3)oc2c1,i,0.42
O=C(Cc1ccccc1)NC1c2ccccc2-c2ccccc21,-6.8*,0.07*
COc1ccc2c(C=O)c[nH]c2c1,i,0.7
Cc1ccc(NC(=O)C2=C(O)c3sccc3N(C)S2(=O)=O)cc1,i,-0.65
COc1ccc2cc(C(=O)N/N=C/c3sc4ccccc4c3O)ccc2c1,i,2.6
CCOc1ccc(-c2nnn(CC(=O)N3CCCC(C)C3)n2)cc1 (stereo unspecified),i,-1.1
Cc1nc(N2CCc3ccccc3C2)[nH]c(=O)c1Cc1ccccc1,i,0.02
COc1cccc(-c2nc(-c3cccs3)no2)c1,i,0.07
CCOc1ccc(N2Cc3ccccc3C2)cc1,i,1.1
O=C(c1ccc(-c2nc3ccccc3s2)o1)N1CCN(c2ccccc2O)CC1,i,1.7
COc1ccc(N2CCN(C(=O)c3ccc4c(c3)NC(=O)C(CSCc3c(F)cccc3Cl)N4)CC2)cc1 (stereo unspecified),i,1.2
COc1ccc(/C(C)=N/NC(=O)c2nnn(-c3nonc3N)c2-c2ccccc2)cc1,i,1.3
O=C(CCNC(=O)C1CCN(S(=O)(=O)c2ccc(F)cc2)CC1)Nc1nccs1,i,-0.44
O=C1/C(=C/c2ccccc2)SC(=S)N1CC(=O)N1CCCCC1c1cccnc1 (stereo unspecified),i,-0.41
Cc1c(C)c2c(C)nn(-c3ccccc3)c2[nH]c1=O,i,-1.3
COc1ccc(/C=C(\C#N)C(=O)N2COCC2(C)C)cc1,i,-1.4
O=C(c1ccc(-c2ccccc2)cc1)C1CCCN(Cc2ccncc2)C1 (stereo unspecified),i,1.7
CC(C)(C)c1ccc(C(=O)NCCOc2ccccc2)cc1,i,0.79
CC(CCc1ccccc1)NC(=S)NC1CCCCC1 (stereo unspecified),i,0.47
CCN1CCN(c2ccc(N3CCN(S(=O)(=O)c4cc([N+](=O)[O-])ccc4C)CC3)nn2)CC1,i,0.45
Cc1ccc(S(=O)(=O)C2(C(=O)Nc3ccc(F)cc3)CC2)cc1,i,1.8
COc1ccc(OC)c(NC(=O)CCN2CCN(c3ccccc3F)CC2)c1,i,-0.47
COc1ccc(CCNC(=O)CCSc2nc(-c3ccco3)cc(C(F)(F)F)n2)cc1,i,0.94
O=C1COc2ccc(S(=O)(=O)N3CCC(C(=O)NCc4ccccc4)CC3)cc2N1,i,-1.2
C=CCSc1nc2ccccc2n1C(=O)/C=C/c1cc(OC)c(OC)c(OC)c1,i,-3.5
Cc1ccc2c(c1)N(C(=O)CCC(=O)NCc1cccnc1)CCO2,i,-2.4
COc1ccc(CNC(=O)CCC(=O)N2CCN(C(C)=O)CC2)cc1,i,-1.4
N#CC1(NC(=O)CSc2nc3ccc([N+](=O)[O-])cc3s2)CCCCC1,i,-0.58
CC1CCN(S(=O)(=O)c2cccc(C(=O)N(Cc3ccccc3)c3ccccn3)c2)CC1,i,1.5

# Compound activity as filed in PubChem.
